2A StopGo = FMDV 2A StopGo reporter, luciferase signal | human cells with a luciferase reporter of 2A StopGo recoding; control for the full effect not named in the record | Potency, µM (doses to about 57.9 µM), inactives show top-dose signal change, negative = less light | hit rate 1.2% among 410,000 | AID 1159524; active = well fitted falling curve with a large enough effect; inconclusive = small, poorly fitted or top-dose-only effect; inactive = no such curve, though single readings can be large or run the other way; tested in HEK293T cells; note: nearly all actives have a fitted effect of over 45% in size; luciferase light after 4 h
RE007 growth inh = less growth of the S. pombe RE007 Vpr strain. S. pombe RE007 Vpr strain, BacTiter-Glo ATP luminescence, 24 h; control for the full effect not named in the record. Potency, µM (doses to about 92.2 µM), inactives show top-dose activity change, negative = less growth. hit rate 0.21% among 360,000. AID 651644; active = well fitted falling curve with a large enough effect; inconclusive = small, poorly fitted or top-dose-only effect; inactive = no such curve, though single readings can be large or run the other way;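 note: nearly all actives have a fitted effect of over 50% in size; the assay follows cell death caused by Vpr and the record does not say whether a fall means rescue or toxicity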
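Fission yeast RE007 carrying one integrated HIV-1 vpr copy, seeded at OD 0.01 in PMG+AL medium with 23 nL pinned compound. Grown 24 h at 30 degrees; viability read by BacTiter-Glo luminescence after 5 min.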
Numbers without * were called inactive; ? = inconclusive; [ ] = remark or other dose. % is set by controls: 0 for no effect and ±100 for the full control effect; potency is the fitted concentration of half-maximal effect. The list is partial. The share of hits here may be higher or lower than overall.

SMILES	2A StopGo	RE007 growth inh
CC1(C(=O)NS(=O)(=O)c2cccc(Cl)c2)CCN1C(=O)C1(c2ccc(Cl)cc2)CCC1 (stereo not drawn)	4%	8%
CNc1cncc(-c2ccccc2NC(C)=O)n1	-11%	1%
CCOC(=O)C1=CCN(S(=O)(=O)c2ccccc2Cl)C1c1cccc(Br)c1 (stereo not drawn)	?	11%
C[C@@H]1CN([C@@H](C)CO)S(=O)(=O)c2ccc(Br)cc2O[C@@H]1CN(C)Cc1cccnc1	-21%	-22%
Nc1nccc(N2CCCCC2)n1	-9%	6%
COc1cc(C(=O)C(=O)N2CCN(c3ccccc3)CC2)cc(OC)c1OC	-27%	9%
COc1ccc(/C=C/C(=O)OCC(=O)NC2CCCCCC2)cc1	1%	-8%
CC1(c2nnc(-c3cccc(Cl)c3)o2)CC(c2cccc(F)c2)=NO1 (stereo not drawn)	-10%	18%
C=C1[C@H]2O[C@H]2[C@@H](OC(C)=O)[C@@]2(C)[C@@H](OC(C)=O)C[C@@H](OC(C)=O)[C@@](C)(O)[C@@H]2[C@@H](OC(C)=O)[C@@]2(O)[C@@H](C)C(=O)O[C@H]2[C@H]1Cl	-16%	1%
CCOC(=O)C1(C)CCCN1C(=O)c1cccc(OC)c1 (stereo not drawn)	-6%	1%[18.4 µM]
Cc1ccccc1-c1nc(NCCN(C)C)nc2ccsc12	-17%	-1%
CCCNC(=O)C1(C)CCN1C(=O)C/C=C/c1ccccc1 (stereo not drawn)	-14%	7%[18.4 µM]

Fetched by structure from above, 2 records:
SMILES	2A StopGo	RE007 growth inh
CCOC(=O)C1(C)CCCN1C(=O)c1cccc(OC)c1 (stereo not drawn)	-6%	1%[18.4 µM]
CCOC(=O)C1=CCN(S(=O)(=O)c2ccccc2Cl)C1c1cccc(Br)c1 (stereo not drawn)	?	11%

Complete entries as entered above. Values in the order: 2A StopGo, RE007 growth inh
C=C1[C@H]2O[C@H]2[C@@H](OC(C)=O)[C@@]2(C)[C@@H](OC(C)=O)C[C@@H](OC(C)=O)[C@@](C)(O)[C@@H]2[C@@H](OC(C)=O)[C@@]2(O)[C@@H](C)C(=O)O[C@H]2[C@H]1Cl across the screens: -16%, 1%
CC1(C(=O)NS(=O)(=O)c2cccc(Cl)c2)CCN1C(=O)C1(c2ccc(Cl)cc2)CCC1 (stereo not drawn) across the screens: 4%, 8%
COc1ccc(/C=C/C(=O)OCC(=O)NC2CCCCCC2)cc1 across the screens: 1%, -8%

The list continues:
SMILES	2A StopGo	RE007 growth inh
COc1ccc([C@H]2N[C@]3(CCCN(Cc4ccco4)C3=O)[C@H]3C(=O)N(Cc4ccccc4)C(=O)[C@@H]23)cc1	-11%	6%
CN(C)CCn1c(COc2ccccc2)nc2ccccc21	-22%	-22%
CC(C)NC(=O)C1(C)CCCCCN1C(=O)c1ccc(-c2ccccc2)cc1 (stereo not drawn)	-4%	1%
CNc1nc(NCc2cccc(OC)c2)c2sccc2n1	?	-6%
Nc1[nH]c(C(=O)c2ccccc2)c(-c2ccc(Br)cc2)c1C(=O)c1ccc(Br)cc1	-20%	5%
CC1(C(=O)N2Cc3ccccc3C2)CCN1C(=O)Cc1ccccc1 (stereo not drawn)	-17%	8%
CN(c1ccccc1)S(=O)(=O)c1ccc(C(=O)N2CCN(c3ccccc3)CC2)cc1	-17%	-10%
O=C(C1CC(=O)N(c2ccc3c(c2)OCCO3)C1)N1CCN(S(=O)(=O)c2ccc(F)cc2)CC1 (stereo not drawn)	-20%	27%
COc1ccc(N2CCN(CCCn3cnc4c(OC)ncnc43)CC2)cc1	-18%	4%
O=C(NC1CC1)C1=C[C@H](c2coc3ccccc3c2=O)C[C@H](OCCCCO)O1	4%	-6%
COc1ccc(NC(=O)c2cc(C3CCCCN3C(=O)Cc3ccc(N(C)C)cc3)on2)c(C)c1 (stereo not drawn)	?	-6%
COc1ccc(/C=C(/NC(=O)c2ccc(Br)o2)C(=O)Nc2cccc(C(=O)O)c2)cc1	0%	14%
COCCN1C[C@@H](CO)O[C@@H](n2cnc3c(N(C)C(C)C)ncnc32)C1	-11%	15%
CC1=C(C(=O)N(C(C)C)C(C)C)CC(CC(=O)NC2CCCCC2)C(=O)N1Cc1ccc(C(C)(C)C)cc1 (stereo not drawn)	8%	10%
COc1cccc(/C=C/C(=O)OCC(=O)Nc2ccc3c(c2)OCCO3)c1	-2%	4%
CN(N=Nc1ccccc1C(=O)O)C1CCCCC1	0%	-7%
CN1CCN(c2ccc(CNC(=O)c3ccc(-c4ccnn4C)c4ccoc34)cc2)CC1	48%[activator]	-20%
O=C(OCc1ccccc1)N1CCN(C(c2ccnc3ccccc23)c2nnnn2-c2ccc3c(c2)OCCO3)CC1 (stereo not drawn)	-11%	8%
C=CCN(CC(=O)c1sc(C(=O)OCC)nc1C)c1cccc(Br)c1	-18%	-5%
CCOC1=C2CN(S(=O)(=O)c3ccc(C)cc3)[C@H](c3ccccc3)C[C@@H]2N(S(=O)(=O)c2ccc(C)cc2)[C@H](c2cccc(C)c2)C1	?	-2%
O=C(C(=O)N(C1CCCCC1)C1CCCCC1)c1ccccc1	-12%	-14%
COc1ccc(CCN2C(=O)CCC3=C2CCC3=O)cc1OC	-8%	8%
CNC(=O)C1(C)CCN1C(=O)Cc1ccc(C(C)C)cc1 (stereo not drawn)	1%	12%[18.4 µM]
COc1ccc(C#Cc2cccc(-c3nc(C(=O)NCCCN4CCOCC4)cc4c3[C@H](CCO)N(S(=O)C(C)(C)C)C4)c2)cc1OC (stereo partly drawn)	-15%	-20%
CN(Cc1ccco1)C(=O)[C@H](Cc1ccccc1)NC(=O)CC[C@H]1O[C@@H](n2ccc(=O)[nH]c2=O)[C@H](O)[C@@H]1O	-6%	5%
COc1ccc(Cl)cc1C(=O)OCC(=O)c1c(N)n(C)c(=O)n(C)c1=O	-9%	7%
O=C(NCc1ccccc1)C(c1ccccc1F)n1c(=O)c(-c2ccco2)nc2ccccc21 (stereo not drawn)	-13%	1%
CC(=O)Nc1ccc(C(=O)N2CCCC(c3cc(C(=O)NCc4ccc(F)cc4)no3)C2)cc1 (stereo not drawn)	-23%	-2%[18.4 µM]
CCCCc1c(-c2ccccc2OC)ncn1Cc1cccc(-c2ccccc2)c1	?	-24%
CNc1cncc(-c2cccc(C(=O)NCCN(C)C)c2)n1	0%	8%
CC1(C(=O)Nc2ccc3[nH]ncc3c2)CCN1C(=O)CC(c1ccccc1)c1ccccc1 (stereo not drawn)	?	-15%
O=C(NN1CCOCC1)c1cccc(F)c1	11%	7%
CCCCNc1nc2c(c(=O)[nH]c(=O)n2C)n1CCCc1ccccc1	-25%	-5%
C[C@H]1CN([C@@H](C)CO)C(=O)CCCn2nncc2CO[C@@H]1CN(C)Cc1ccncc1	-2%	19%
COc1cc(F)ccc1-c1cc(C(=O)NCc2cccs2)[nH]n1	33%[activator]	12%
CC(=O)NCCNC(=O)C1(C)Cc2c(-c3cccc(C(N)=O)c3)ccnc2O1 (stereo not drawn)	-3%	-8%[18.4 µM]
CCCNC(=O)C1(C)CCCN(Cc2cccc(Oc3ccccc3)c2)C1 (stereo not drawn)	-18%	-24%
Cc1cccc(CN(C)C[C@@H]2OCc3cnnn3CCCC(=O)N([C@H](C)CO)C[C@H]2C)c1	-16%	3%
CC(C)(C)N(Cc1ccccc1)C(=O)COC(=O)Cn1[nH]c(=O)c2ccccc2c1=O	-27%	-13%
CCOC(=O)c1ccc(NC(=O)c2c(N)n(C)c(=O)n(C)c2=O)cc1	0%	-1%
C=CCOc1cccn2c(N(C)C(=O)c3ccccc3F)c(CC)nc12	-3%	-26%
COC(=O)c1cc([N+](=O)[O-])c(C)c(C)n1	0%	18%
CN(CC(=O)Nc1cccc(F)c1)C(=O)c1cccc(S(=O)(=O)N2CCN(c3ccc(F)cc3)CC2)c1	?	4%
Cc1c(C(=O)/C=C/c2ccccc2F)c2cc(O)ccc2n1C	36%[activator]	-8%
Clc1ccc(NN(Cc2ccncc2)c2ccc(Cl)cc2)cc1	24%	?
CCS(=O)(=O)C1C(=O)N(C)C(S(=O)(=O)CC)C(=O)N1C (stereo not drawn)	-25%	?
COCc1cccc(-c2csc(C(N)c3ccc(F)c(F)c3)n2)c1 (stereo not drawn)	-5%	-13%
CCCCn1nnnc1C1(C)CCC(=O)N1CC1CCCCC1 (stereo not drawn)	0%	-8%
COc1ccc2c(c1)O/C(=C\c1ccccc1O)C2=O	61%[activator]	17%
COC(C/C=C\[C@H](O)COCc1ccccc1)OC	-4%	-3%
Cc1ccc(S(=O)(=O)N2[C@H](c3ccccc3)CC(=O)[C@@H]3CN(S(=O)(=O)c4ccccc4C)[C@H](c4ccccc4)C[C@@H]32)cc1	-16%	7%
Cc1nn(-c2ccccc2)nc1C(=O)Nc1cccc(C(=O)NC2CC2)c1	32µM*	2%
OCCOCCn1c(C2CCCN2c2nc(-c3ccc(F)cc3)cs2)nc2cc(Cl)c(Cl)cc21 (stereo not drawn)	-25%	-4%
CCCS(=O)(=O)NC(=O)C1(C)CCCN(C(=O)c2ccccc2OC(F)(F)F)C1 (stereo not drawn)	-18%	12%
Cc1cc(OCc2cn(CC(=O)c3ccc(O)cc3)nn2)ccc1[N+](=O)[O-]	-13%	-4%
CCOC(=O)C1=CCC(c2cc3ccccc3[nH]2)NC1 (stereo not drawn)	15%	-14%
COc1ccccc1-c1cnc(C(O)c2ccc(CN3CCCC3)cc2)[nH]1 (stereo not drawn)	-17%	-22%[18.4 µM]
COc1cccc(CNC(=S)Nc2ccc3c(c2)c(=O)n(C)n3Cc2ccc(F)cc2)c1	-12%	1%
CC(=O)c1c(C)[nH]c(C(=O)Nc2ccc(N3CCCCCC3)cc2)c1C	?	-1%
COc1ccc(-n2nnnc2C(c2ccccc2)N2CCN(C/C=C/c3ccccc3)CC2)cc1 (stereo not drawn)	4%	-4%
(listing goes on)
SMILES	2A StopGo	RE007 growth inh
CCC1(c2ccc(C)cc2)C(=O)NC(=S)NC1=O	-12%	16%[18.4 µM]
COc1ccc(CC(N)c2csc(NC(=O)Nc3ccccc3Oc3ccccc3)n2)cc1 (stereo not drawn)	0%	4%
COc1ccc2c(c1)c[n+](C)c1c3cc(OC)c(OC)cc3ccc21	-20%	?
Cc1ccc(OCC(=O)Oc2cccc(C)c2)cc1	-8%	4%
C#Cc1ccc([C@H]2C=C(C(=O)NCc3nc4ccccc4[nH]3)O[C@@H](OCc3ccc(CO)cc3)C2)cc1	3%	7%
O=C(NNC(=O)c1cc(-c2ccc(Br)cc2)nc2ccccc12)c1csc(N2CCOCC2)n1	-18%	16%
COCCNC(=O)C1(C)CCCN(Cc2ccc(Cl)nc2)C1 (stereo not drawn)	0%	3%
CC(C)CC1NC(=O)c2cc3ccccc3cc2-n2c1nc1cc(Cl)ccc1c2=O (stereo not drawn)	?	-3%
O=[N+]([O-])c1cc2c(c([N+](=O)[O-])c1)Nc1ccccc1O2	?	-22%
O=C(NCc1ccccc1CN1CCCC1)c1ccc(S(=O)(=O)Nc2ccccc2F)cc1	-7%	-12%
CCc1ccccc1NC(=O)C1CCN(S(C)(=O)=O)CC1	-9%	6%
COc1ccc(S(=O)(=O)N2CCCCC2c2cc(C(=O)NCc3ccccc3)no2)cc1 (stereo not drawn)	1%	3%

Brought forward from above: seven compounds, then new ones.
SMILES	2A StopGo	RE007 growth inh
O=C(NNC(=O)c1cc(-c2ccc(Br)cc2)nc2ccccc12)c1csc(N2CCOCC2)n1	-18%	16%
COCCNC(=O)C1(C)CCCN(Cc2ccc(Cl)nc2)C1 (stereo not drawn)	0%	3%
CC(C)CC1NC(=O)c2cc3ccccc3cc2-n2c1nc1cc(Cl)ccc1c2=O (stereo not drawn)	?	-3%
O=[N+]([O-])c1cc2c(c([N+](=O)[O-])c1)Nc1ccccc1O2	?	-22%
O=C(NCc1ccccc1CN1CCCC1)c1ccc(S(=O)(=O)Nc2ccccc2F)cc1	-7%	-12%
CCc1ccccc1NC(=O)C1CCN(S(C)(=O)=O)CC1	-9%	6%
COc1ccc(S(=O)(=O)N2CCCCC2c2cc(C(=O)NCc3ccccc3)no2)cc1 (stereo not drawn)	1%	3%
CSc1ccc(CN2CCC2(C)C(=O)NCc2ccccc2Br)cc1 (stereo not drawn)	-28%	-10%[18.4 µM]
CCCCCNC(=O)C(C1CC1)n1c(=O)c(-c2ccccc2)nc2ccccc21 (stereo not drawn)	0%	-5%
CC(C)CCn1nc(C(=O)OCC(=O)NC(C)c2ccccc2)c2ccccc2c1=O (stereo not drawn)	0%	-1%
O=C(COC(=O)c1cccc(Cl)c1Cl)NC1CCCCCC1	-30%	12%
C[C@H]1CN([C@@H](C)CO)C(=O)CCCn2nncc2CO[C@H]1CN(C)C(=O)c1ccccc1	40%[activator]	-3%
CC1CCCCN1C(=S)Nc1ccc(S(=O)(=O)N2CCCCC2)cc1 (stereo not drawn)	0%	-2%
Cc1ccc(S(=O)(=O)N(CC(=O)NC2CC3CCC2C3)c2ccccc2)cc1 (stereo not drawn)	-1%	6%
Cc1ccccc1S(=O)(=O)NC(=O)C1(C)CCN1C(=O)Cc1ccccc1Cl (stereo not drawn)	-3%	1%
CC1(C(=O)NS(=O)(=O)c2ccc(Cl)cc2)CCN1C(=O)Cc1ccc(-c2ccccc2)cc1 (stereo not drawn)	4%	-1%[18.4 µM]
COC(=O)[C@]12CCCCC=C1N(Cc1ccccc1)C(=O)[C@H](CC(=O)NCCc1ccccc1OC)C2	-19%	6%
COc1ccc(S(=O)(=O)N(C)C[C@@H]2OCCCC[C@@H](C)Oc3ccc(NC(=O)NC(C)C)cc3C(=O)N([C@H](C)CO)C[C@@H]2C)cc1	?	40%
COc1ccc(-c2oc3c(c2C#CCCCCO)C(OCCO)CC3)cc1 (stereo not drawn)	-23%	-14%

Compound activity from PubChem BioAssay.
